Screening data (PubChem)
TRPML1 blocker = human mucolipin-1 channel inhibition | Q9GZU1 | TRPML1-inducible cells, Ca2+ dye fluorescence, FDSS; stronger effect = lower value; inhibition of EC80 agonist-evoked calcium signal | activity change, negative = inhibition, % (test concentration not listed) | 0.02% of 390,000 active | AID 624415; in the data active means activity change below about -50%; inconclusive means about -30% to -50%; inactive means above about -30%;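 note: stimulus is agonist 54-4 at its EC80 concentration; % is set by controls: 0 for no effect and ±100 for the full control effect; compound concentration not given in the record; the text of the record puts the active cut at -80%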
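Tet-induced TRPML1-DL cells loaded with Ca8 no-wash calcium dye were read kinetically on FDSS. Compound addition was followed by EC80 agonist 54-4 (4 uM final); inhibition was read over 110 s.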
Menin MLL FP FL = menin-MLL binding inhibition, fluorescein peptide; Fluorescence polarization, fluorescein-MLL peptide displacement from menin; FP activity change, % at 61.4 µM; 290,000 tested, under 10 active; inconclusive = falling polarisation curve, or a change in total fluorescence; inactive = total fluorescence flat and polarisation flat or rising; no compound was filed as active; the % refers to the polarisation; negative = inhibition;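 note: % of control where 0% means no effect; inhibitors lower the polarisation; unlabelled MLL peptide was the positive control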
PINK1 modulator = PINK1 expression modulation. PINK1 immunofluorescence, high-content cytometry, 24 h. Potency, µM (titrated, usually from 76.6 µM), without a hit: at the top dose activation (PINK1 increase), actives largely listed as activators. 0.2% of 410,000 active; active = well fitted activation curve with a large enough effect; inconclusive = small, poorly fitted or top-dose-only effect; inactive = flat fitted curve, though single readings scatter; cell line not stated here;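 note: potency is the fitted concentration of half-maximal effect; % of control where 0% means no effect; nearly all actives have a fitted effect of over 65% in size; a mitochondrial uncoupler was the plate control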
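Stable cell line, 250 cells/well, 12 h attachment; compounds pinned at 5 concentrations, 24 h; CCCP control. Fixed with nuclear dye, primary antibodies 12 h at 10 degrees C, secondary plus cell stain; laser-scanning cytometer read.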
TRPV1 potentiator = potentiators of human vanilloid receptor 1 (TRPV1); Q8NER1; AID 540277; TRPV1-expressing cells, Fluo-8 calcium influx, capsaicin EC20 potentiation; host cell line not named in the record; control for the full effect not named in the record; 0.02% of 320,000 active; potentiation, % at 8.33 µM; active means potentiation above 80%; inconclusive means 30% to 80%; inactive means below 30%; note: 0% is about no effect
Target sequence (Q8NER1 whole entry, looked up): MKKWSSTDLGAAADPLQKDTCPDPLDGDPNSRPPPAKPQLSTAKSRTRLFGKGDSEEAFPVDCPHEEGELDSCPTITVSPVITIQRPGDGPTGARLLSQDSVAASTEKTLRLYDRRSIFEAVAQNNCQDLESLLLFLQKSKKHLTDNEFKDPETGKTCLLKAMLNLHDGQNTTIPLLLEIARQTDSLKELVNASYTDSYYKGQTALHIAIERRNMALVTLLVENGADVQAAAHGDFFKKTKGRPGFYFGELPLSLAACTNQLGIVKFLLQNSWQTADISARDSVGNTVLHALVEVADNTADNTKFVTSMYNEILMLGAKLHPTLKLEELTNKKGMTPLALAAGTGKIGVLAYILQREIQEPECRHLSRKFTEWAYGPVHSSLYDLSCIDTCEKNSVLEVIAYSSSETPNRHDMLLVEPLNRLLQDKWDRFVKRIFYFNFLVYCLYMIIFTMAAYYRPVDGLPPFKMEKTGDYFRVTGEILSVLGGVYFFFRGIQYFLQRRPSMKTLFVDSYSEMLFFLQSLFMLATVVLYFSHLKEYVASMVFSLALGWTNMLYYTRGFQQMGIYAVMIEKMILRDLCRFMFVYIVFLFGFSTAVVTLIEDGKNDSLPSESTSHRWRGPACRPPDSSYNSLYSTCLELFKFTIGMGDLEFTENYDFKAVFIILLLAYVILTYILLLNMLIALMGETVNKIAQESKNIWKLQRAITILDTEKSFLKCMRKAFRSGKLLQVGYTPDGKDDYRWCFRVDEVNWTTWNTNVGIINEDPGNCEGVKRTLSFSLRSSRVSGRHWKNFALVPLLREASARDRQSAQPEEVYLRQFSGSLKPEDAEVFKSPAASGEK
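TRPV1-expressing cells were cultured overnight at 35.5C and loaded with Fluo-8 calcium dye for 40 to 90 min at room temperature. After a 10 s baseline, compound was added and calcium influx was read kinetically for 3 min (ex 480/em 520 nm).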
ClpP mod = qHTS Assay for Activators of ClpP | ATP-dependent Clp protease proteolytic subunit (Bacillus subtilis (strain 168)), P80244 | purified B. subtilis ClpP, FRET peptide cleavage, 20 min | Potency, µM (titrated, usually from 57.5 µM), without a hit: at the top dose activity change, negative = active | 1.9% of 340,000 active | AID 651965, 2013; active = well fitted falling curve with a large enough effect; inconclusive = small, poorly fitted or top-dose-only effect; inactive = no such curve, though single readings can be large or run the other way; note: potency is the fitted concentration of half-maximal effect; the source files actives as falling curves though it sought activators and does not explain the sign; nearly all actives have a fitted effect of over 65% in size; many hits overshoot -100%
Target sequence (P80244 whole entry, looked up): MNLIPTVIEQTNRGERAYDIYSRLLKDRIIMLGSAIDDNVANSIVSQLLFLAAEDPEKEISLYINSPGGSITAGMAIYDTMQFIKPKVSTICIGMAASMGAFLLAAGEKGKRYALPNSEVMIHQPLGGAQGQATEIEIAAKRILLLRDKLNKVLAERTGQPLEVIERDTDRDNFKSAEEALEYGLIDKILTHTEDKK
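FRET quenching reversal measured ClpP activation: 10 microg/mL B. subtilis ClpP at pH 8 with the FRET-FV decapeptide, read at 430 nm after 320 nm excitation. The 20-min minus 0-min signal was scaled between DMSO/no-enzyme wells and ADEP (5.8 microM final).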
TRPML1 ag = activates the human TRPML1 channel; Q9GZU1; TRPML1-expressing cells, Ca2+ dye fluorescence, FDSS; host cell line not named in the record; reference of the full effect not given here; activation, % (no concentration beside the values); 0.12% of 410,000 active; AID 624414; in the data active = activation above about 50%; inconclusive = about 30% to 50%; inactive = below about 30%; note: 0% is about no effect; the text of the record puts the active cut at 80%
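Agonist activity was taken from a 110 s kinetic Ca2+ dye read on the FDSS after pinning compounds onto TRPML1-DL cells. The cells were seeded at 1,500/well with Tet inducer, incubated about 16 h, then dye-loaded at room temperature.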
Sfp PPTase inh = Sfp phosphopantetheinyl transferase inhibition; Q9F4F7; Biochemical Sfp PPTase activity, qHTS; Potency, µM, inactives show max response, negative = inhibition, actives largely listed as inhibitors; 3.5% of 310,000 active; active = well fitted inhibition curve with a large enough effect; inconclusive = small, poorly fitted or top-dose-only effect, or another doubt; inactive = no such curve, though single readings can be large or run the other way;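 note: the enzyme is Sfp with the accession as filed and its product quenches rhodamine fluorescence; potency is the fitted concentration of half-maximal effect; 0% = enzyme reaction without inhibitor and -100% = no enzyme wells; top concentration of the series not given in the record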
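With Hepes-Na pH 7.6 buffer containing 10 mM MgCl2, Sfp (15 nM) modified BHQ-2-YbbR (12.5 uM) using rhodamine-CoA (5 uM). Two reads 30 minutes apart at 525/598 nm yielded each well's rate.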
The depositor's hits bear a star; ? = inconclusive; / = not tested or not shown; & = joins results of further samples; [ ] = another dose, or the depositor's remark.

smiles | TRPML1 blocker | Menin MLL FP FL | PINK1 modulator | TRPV1 potentiator | ClpP mod | TRPML1 ag | Sfp PPTase inh
Cc1ccc(C(=O)N/N=C/c2cn(Cc3ccccc3)c3ccccc23)cn1 | -12 | 5.3 | 0.2% | / | -3.6% | 0.4 | -12%
N=c1sccn1CC(=O)N1CCc2ccccc21 | 5 | 3.3 | -1.3% | 1 | -1.0% | 1.1 | 14%
Nc1ccc(C#Cc2ccccc2)cc1 | -15 | 1.4 | 2.9% | 2 | -1.3% | 0.3 | 20%
Cc1c(CCOC(=O)CC23CC4CC(CC(C4)C2)C3)sc[n+]1CC(=O)c1ccc(Br)cc1 | 7 | -0.1 | -2.1% | -3 | -5.3% | -0.4 | ?
O=C(NCCN1CCOCC1)c1ccc(Cl)c(S(=O)(=O)N2CCCCC2)c1 | 22 | 0.6 | 1.3% | 14 | -2.7% | 0.1 | 7%
COc1ccc(NC(=O)c2ccc(NCCN3C(=O)CCC3=O)c([N+](=O)[O-])c2)cc1 | -2 | 3.0 | 6.9% | -1 | / | -0.1 | 8%
Cn1c(Cn2c(=O)sc3ccccc32)nnc1SCc1ccccc1 | 28 | -0.7 | -0.1% | 22 | 0.3% | 0.4 | 10%
COC(=O)c1csc(C2OC(CO)C(O)C2O)n1 (configuration not stated) | 11 | / | 1.9% | / | -0.1% | 0.3 | /
O=C(O)CCNC(=O)c1ccc(NC(=O)Cc2ccc(Cl)cc2)cc1 | 4 | 0.2 | -0.4% | 1 | / | -0.4 | 17%
Cc1ccc(-c2cc(NC(=O)c3ccccc3[N+](=O)[O-])n[nH]2)cc1 | 2 | -3.7 | 3.0% | 6 | 0.8% | -0.1 | 9%
CCCc1cc(C(=O)OC)c2ccccc2n1 | 15 | -7.0 | 14% | 6 | -4.5% | 0.1 | -19%
Cc1ccc(S(=O)(=O)N2CCC(C(=O)NC3CCCCC3C)CC2)cc1 (configuration not stated) | 6 | -5.9 | 1.0% | -3 | 2.1% | -0.9 | 14%
Cc1occc1C(=O)N/N=C/c1ccc(-c2ccccc2)cc1 | -20 | 1.3 | 9.9% | 3 | / | 2.5 | 17%
O=CN(Cc1ccccc1)c1cc([N+](=O)[O-])ccc1OCc1ccccc1 | 53 | / | -4.6% | / | -1.1% | 8.5 | /
Clc1nnc(N/N=C/c2ccccc2)c2ccccc12 | -4 | 0.3 | 1.5%[38.3 µM] | -1 | -1.7% | 3.8 | -20%
CCn1c(CSc2ncccn2)nnc1SCC(=O)N1CCc2ccccc21 | 8 | 2.1 | ? | -5 | 0.1% | 0.1 | 3%
O=c1cc(N2CCCC2)c(-c2ccccc2)n[nH]1 | 53 | 2.8 | -1.1% | 6 | / | 1.1 | 3%
CNc1ccc(Br)cc1C(O)c1ccccc1 (configuration not stated) | -6 | 0.6 | 3.4% | 18 | 1.5% | 1.2 | 89µM*
O=C(Nc1ccc(N2CCOCC2)cc1)NC1CCCCC1 | -9 | -0.2 | -2.8%[38.3 µM] | 14 | -4.8% | -0.3 | -5%
COc1ccccc1COC(=O)c1ccc(S(=O)(=O)N2CCOCC2)cc1 | 9 | / | -1.0% | 0 | 1.6% | 1.9 | /
COc1cc(/C=C2/C(=N)N3C(=NC2=O)SN=C3S(=O)(=O)C(C)C)ccc1OC(=O)c1ccco1 | -19 | / | 1.8% | 3 | -4.5% | 1.0 | -2%
Cn1c(SCC(=O)N2CCN(c3ccccc3)CC2)nnc1-c1cc2ccccc2o1 | -8 | 0.7 | -5.7%[38.3 µM] | -6 | -7.7% | 0.9 | ?
O=C(Cc1ccc(-n2c(=O)[nH]c3ccccc3c2=O)cc1)N1CCN(c2ccccc2)CC1 | -4 | -1.7 | 2.9% | -9 | -13% | -0.2 | 8%
CCN1CCN(CCCNC(=O)c2ccc3c(c2)N(Cc2ccccc2)CCS3)CC1 | -4 | / | 1.1% | 7 | 4.3% | -0.4 | -4%
CN(C(=O)c1cccnc1)c1nnc(-c2cccnc2)s1 | 4 | -0.4 | -0.9% | -6 | -27% | 0.3 | 9%
O=C(Nc1ccc2c(c1)CCC2)c1cc(S(=O)(=O)Nc2ccc(F)cc2)c(Cl)cc1Cl | 20 | 5.3 | ? | -5 | -2.2% | 1.1 | 14%
COc1ccc(CN2C(=O)c3ccccc3C2C(=O)NC2CCC(C)CC2)c(OC)c1 (configuration not stated) | / | 1.3 | 2.5% | 6 | -1.5% | / | 8%
CCCN1CCN(c2ncnc3sc(C(=O)Nc4ccc(N(CC)CC)cc4C)c(C)c23)CC1 | 45 | / | 1.0% | / | -1.2% | -0.4 | /
O=c1[nH]ncc(N2CCN(Cc3ccccc3)CC2)c1Cl | -4 | -2.4 | 0.3% | -8 | / | -0.3 | 1%
COc1cc(-c2nnc(Cn3cc(C(F)(F)F)ccc3=O)o2)cc(OC)c1OC | 19 | 0.6 | 0.7% | -14 | -5.7% | 0.1 | 9%

Among those listed so far, 2 contain fluorine.
smiles | TRPML1 blocker | Menin MLL FP FL | PINK1 modulator | TRPV1 potentiator | ClpP mod | TRPML1 ag | Sfp PPTase inh
O=C(Nc1ccc2c(c1)CCC2)c1cc(S(=O)(=O)Nc2ccc(F)cc2)c(Cl)cc1Cl | 20 | 5.3 | ? | -5 | -2.2% | 1.1 | 14%
COc1cc(-c2nnc(Cn3cc(C(F)(F)F)ccc3=O)o2)cc(OC)c1OC | 19 | 0.6 | 0.7% | -14 | -5.7% | 0.1 | 9%

(more compounds)
smiles | TRPML1 blocker | Menin MLL FP FL | PINK1 modulator | TRPV1 potentiator | ClpP mod | TRPML1 ag | Sfp PPTase inh
Cc1ccsc1-c1nc(CN(C)C(C2CC2)C2CC2)c(C)o1 | 33 | 3.5 | -0.9% | 2 | / | 0.4 | 4%
Cc1cccc(C(=O)N[C@H](C(=O)Nc2cccc(S(=O)(=O)N3CCCC3)c2)C(C)C)c1 | -13 | -0.1 | 1.4% | 10 | -0.2% | 2.1 | 9%
C=CCCN(C(C)C(=O)OC)S(=O)(=O)c1ccccc1Br (configuration not stated) | 15 | -1.6 | / | / | / | 2.3 | 7%
Cc1ccc(Cl)cc1NC(=O)c1ccc(CSc2nnnn2C)cc1 | -19 | 3.8 | 0.1% | 5 | -1.5% | -0.7 | 13%
O=C(O)C1C2C=CC3(CN(CC(O)COc4ccccc4)C(=O)C13)O2 (configuration not stated) | -7 | 0.0 | 1.3% | -4 | -2.4% | -0.5 | 15%
CCOc1cc(/C=C2\N=C(C)OC2=O)cc(Br)c1OCC(=O)OC | 18 | 2.6 | 0.6%[38.3 µM] | 4 | 0.4% | 0.4 | 5%
CCN1C(=O)/C(=C2\C=Cc3ccccc3N2CC)OC1=S | 18 | / | / | / | -5.6% | 0.5 | /
O=C(Cc1ccc(Br)cc1)NNC(=O)c1cccs1 | -16 | / | 0.3% | / | / | -0.5 | /
CC(C)=CCN1CCN(Cc2nc(C(C)C)cs2)CC1CCO (configuration not stated) | -5 | -2.0 | -0.7% | 6 | / | 0.4 | 6%
Cc1cccc(NC(=O)c2cc([N+](=O)[O-])ccc2N2CCOCC2)c1C | -7 | / | 0.2% | / | 2.3% | -0.8 | /
Cc1ccc(S(=O)(=O)NCCC(=O)N2CCCCCCC2)cc1C | 4 | / | -1.5% | -20 | 0.6% | -0.7 | /
COc1ccc(-c2c(-c3cc(OC)c(OC)c(OC)c3)noc2C)cn1 | 26 | -4.5 | 2.5% | -4 | -0.6%&-2.2% | 0.9&-0.4 | 10%
O=C(CN1C(=O)NC2(CCc3ccccc32)C1=O)Nc1ccccc1Cl (configuration not stated) | -14 | / | 0.8% | / | 1.3% | -1.4 | /
CCOC(=O)c1ccc(-n2c(C)ccc2C)cc1 | 13 | 6.2 | 1.4% | 7 | 1.0% | 0.2 | -14%
O=C(CCCSc1nc(-c2ccco2)cc(C(F)(F)F)n1)NCC1CCCO1 (configuration not stated) | -9 | 4.7 | 2.0% | -20 | -3.2% | 0.3 | 18%
O=c1[nH]c2ccsc2c(=O)n1CCO | -15 | 9.8 | 0.7% | 5 | -3.8% | 3.3 | 10%
COc1ccc(S(N)(=O)=O)cc1C(=O)N(C)CC(=O)Nc1ccc(N2CCOCC2)cc1 | -15 | -1.8 | 0.7% | 8 | -1.2% | 0.5 | 13%
CC1CN(C(=O)c2cc(S(=O)(=O)N(C)c3ccc(F)cc3)ccc2Cl)CC(C)O1 (configuration not stated) | -5 | / | 0.1% | -4 | -0.7% | -0.6 | 11%
Cc1cc(C)nc(-n2nc(C)c(Oc3ccccc3O)c2C)n1 | 7 | 4.3 | 2.8% | 8 | 28µM* | -1.6 | -1%
CCC(C)(C)c1ccc(Oc2cccc(C(=O)O)c2)cc1 | 15 | -2.1 | -0.5% | 21 | / | 1.8 | 18%
O=C(NCC1CCCO1)c1cccc(S(=O)(=O)N2CCCCC2)c1 (configuration not stated) | 3 | / | -0.4% | -12 | -2.2% | 1.1 | /
COc1ccc(NC(=O)Cn2c(=O)n(-c3ccc(C)cc3)c(=O)c3c2cnn3C)cc1 | -10 | / | 0.6% | / | -0.1% | 0.6 | /
c1ccc(-c2nnc(CN3CCCCC3)o2)cc1 | 2 | 3.1 | 0.0% | -5 | -0.9% | -0.3 | ?
CC1CCCCN1C(=O)Cn1cnc2cc([N+](=O)[O-])ccc2c1=O (configuration not stated) | -4 | -0.2 | 1.0% | -4 | / | 0.3 | -1%
CCN(CC)CCNC(=O)c1ccc(N2CCCCC2)c(NS(=O)(=O)c2ccc(C)cc2)c1 | -12 | -0.3 | 3.1% | 1 | -17% | 1.2 | -9%
CCc1cccc(CC)c1NC(=S)/C(=C(\[O-])c1ccc(Cl)s1)[n+]1ccccc1 | 13 | -4.9 | 2.2% | -12 | -1.5% | -0.5 | -15%
Cc1cc(N(C)C)cc(C)c1N=Nc1cc[n+]([O-])cc1 | 3 | / | 2.1% | / | 0.1% | 0.0 | /
COc1ccc(N2CCN(C(=O)COC(=O)CC(NC(N)=O)c3ccc(Cl)cc3)CC2)cc1 (configuration not stated) | -10 | / | 3.7% | / | -3.5% | -0.8 | /
